Screening data (PubChem)
MT1-MMP act inh: blockers of MT1-MMP proenzyme processing, primary screen, HT1080 RFP-PRO-GFP cells, GFP/RFP fluorescence. Matrix metalloproteinase-14 (Homo sapiens), P50281. GFP/RFP ratio fluorescence, overnight; percent of plate control window, DMSO zero. GFP/RFP ratio change, % at 20 µM. 360,000 compounds, 0.061% hits. AID 651647, 2012;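 active means GFP/RFP ratio change of at least 30% with cell ATP level not reduced by more than half and red fluorescence within 50% of control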; further: strong numbers were not always called active
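Material – HT1080 RFP-PRO-GFP cells · Control set – DMSO wells and RFP-L50D-GFP cells · Incubation – overnight cell settling, then overnight compound exposure, 37 °C, 5% CO2 · Compound dosing – single-point 20 µM compound, 1% DMSO · Read-out – GFP/RFP fluorescence ratio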
Rce1 inh: yeast Rce1p protease inhibitors, primary screen, biochemical, fluorescence, cell-free homogeneous | CAAX prenyl protease 2 (Saccharomyces cerevisiae (strain ATCC 204508 / S288c)), Q03530 | yeast membranes, quenched prenylated peptide cleavage fluorescence | calls only | 290,000 compounds, 0.27% hits | AID 2563, 2010;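 active means fall in fluorescence gain of 50% or more versus controls, with final raw signal at or below 3038400; inconclusive means same 50% fall but final raw signal above 3038400; inactive means fall in fluorescence gain under 50%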;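 further: plate controls were neutral control wells for no effect and wells lacking membranes for full effect; tested at 10 µM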
Target sequence (Q03530 whole entry, looked up): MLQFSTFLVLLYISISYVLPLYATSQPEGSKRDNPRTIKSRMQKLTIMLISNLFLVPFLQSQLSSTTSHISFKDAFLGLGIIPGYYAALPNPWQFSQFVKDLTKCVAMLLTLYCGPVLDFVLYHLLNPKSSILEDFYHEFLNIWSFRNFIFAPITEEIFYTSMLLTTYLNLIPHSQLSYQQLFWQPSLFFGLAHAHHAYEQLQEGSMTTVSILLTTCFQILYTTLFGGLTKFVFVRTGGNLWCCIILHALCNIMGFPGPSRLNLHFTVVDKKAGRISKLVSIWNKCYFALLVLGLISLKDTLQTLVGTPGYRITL
CSC inhib: cancer stem cell viability inhibitors, primary screen, luminescence. cancer stem cell-like cells viability. inhibition, % at 7.5 µM. 300,000 compounds, 1.1% hits;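 active means mean at 75% or more and at least half the replicates too; inconclusive means mean and replicates disagree; tested in HMLE shEcad cells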;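 further: 0% = median of negative and 100% = median of positive control wells; the first replicate is given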
HIV Env fusion: inhibitors of HIV-1 Env-driven cell-cell fusion, primary screen, HeLa-JRFL effector, CEM21 target cells, luciferase | inhibition, % at 12.3 µM | 360,000 compounds, 1.1% hits;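 active means mean replicate inhibition score of at least 50 and every replicate individually at or above 50; inconclusive means only one of the two criteria met; inactive means mean below 50 and not all replicates reaching 50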;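 further: 0% = plate neutral controls and 100% = maraviroc near 300 nM; one replicate is shown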
PABP polyA inh: PABP poly(A) RNA binding inhibitors, primary screen, biochemical, fluorescence polarization, uHTS; Polyadenylate-binding protein 1 (Homo sapiens), P11940; inhibition, % at 35 µM; 290,000 compounds, 1% hits;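 active means 50% or more with normal probe brightness, or confirmed in later tests; inconclusive means above 50% with abnormal brightness, or retests that disagree; inactive means below 50% or failed in later tests; about a fifth of its hits are not listed in these tables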;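 further: calls also rest on retests at 20 µM and on dose response follow-up; controls were probe without protein and protein plus probe with vehicle; some compounds called inactive have numbers as strong as hits; many hits fall short of the cut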
Target sequence (P11940 whole entry, looked up): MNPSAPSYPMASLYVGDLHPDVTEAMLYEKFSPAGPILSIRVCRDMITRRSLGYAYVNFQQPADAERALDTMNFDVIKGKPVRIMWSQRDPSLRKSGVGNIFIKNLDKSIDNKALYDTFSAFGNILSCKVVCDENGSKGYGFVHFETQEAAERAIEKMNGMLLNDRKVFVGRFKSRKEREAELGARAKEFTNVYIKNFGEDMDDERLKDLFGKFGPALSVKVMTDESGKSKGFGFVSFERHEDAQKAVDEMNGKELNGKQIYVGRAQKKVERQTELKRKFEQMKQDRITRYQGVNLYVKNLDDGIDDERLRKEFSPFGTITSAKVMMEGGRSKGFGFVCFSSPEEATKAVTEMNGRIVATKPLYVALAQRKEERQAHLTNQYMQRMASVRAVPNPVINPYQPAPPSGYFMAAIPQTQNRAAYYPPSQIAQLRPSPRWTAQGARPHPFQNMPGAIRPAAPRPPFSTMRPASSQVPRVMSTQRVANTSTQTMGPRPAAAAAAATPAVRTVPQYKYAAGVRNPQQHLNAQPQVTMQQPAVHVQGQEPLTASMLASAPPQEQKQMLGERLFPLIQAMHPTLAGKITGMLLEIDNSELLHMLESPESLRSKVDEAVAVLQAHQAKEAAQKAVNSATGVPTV
eIF4H FP inh: human eIF4H binding inhibitors, primary screen, translation initiation inhibitor project, biochemical, uHTS, fluorescence polarization. Eukaryotic translation initiation factor 4H (Homo sapiens), Q15056. eIF4H fluorescence polarization binding assay. inhibition, % at 35 µM. 290,000 compounds, 0.94% hits;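 active means 50% or more with normal probe brightness, or confirmed in later tests; inconclusive means above 50% with abnormal brightness, or retests that disagree; inactive means below 50% or failed in later tests; about a fifth of its hits are not listed in these tables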;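 further: calls also rest on retests at 20 µM and on dose response follow-up; 0% = protein and probe with vehicle and 100% = probe without protein; strong numbers were not always called active; many hits fall short of the cut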
UUG fidelity: modulators of yeast start codon fidelity, primary screen, whole organism, S. cerevisiae, single point, plate reader | S. cerevisiae UUG-firefly luciferase reporter, luminescence/redox ratio | 350,000 compounds, 0.13% hits | AID 602363, 2012 | activity score, % at 18.7 µM;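 active means replicate mean at a twofold rise or more, about +100% in these data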;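 further: firefly luciferase made from a UUG start codon reports start codon fidelity; reporter light over untreated wells divided by growth signal over untreated wells; some hits fall short of that in this replicate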
eIF4H FP inh retest: also measured in eIF4H FP inh; calls as there; inhibition, %; compound at 20 µM; confirmation average;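 mean of two retest wells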
PABP polyA inh retest: recorded beside PABP polyA inh, whose call it bears; inhibition, %; compound at 20 µM; confirmation repeats;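 mean of two retest wells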
MT1-MMP act inh RFP: recorded beside MT1-MMP act inh, whose call it bears; RFP signal change, %; measured here: RFP expression control read;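 0 = vehicle wells; hits needed this value within 50% of zero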
Numbers without * were called inactive; i = inactive; ? = inconclusive; nt = no result given; & = joins results of further samples.

SMILES | MT1-MMP act inh | MT1-MMP act inh RFP | Rce1 inh | CSC inhib | HIV Env fusion | PABP polyA inh | eIF4H FP inh | UUG fidelity | others
Cc1ccccc1NS(=O)(=O)c1ccc(OCCNS(C)(=O)=O)cc1 | -1 | 1 | i | 4 | 3 | -6 | -6 | nt
Cc1ccc(-n2c(CNc3ccc(F)cc3)nnc2SCC(N)=O)cc1 | -3 | 0 | i | -15 | -48 | 7 | -10 | -11
COCC(=O)Nc1sc2c(c1C(=O)OC)C(C(=O)OC)CC2 (centres undefined) | 0 | 1 | i | -1 | -3 | 9 | -4 | -45
COc1ccccc1Oc1ccc2c(c1)C(=O)N(c1ccc(O)cc1)C2=O | 2 | 1 | nt | -5 | nt | -1 | -7 | -23
Cc1cc(NC(=O)Cn2cc([N+](=O)[O-])cn2)no1 | 1 | 2 | i | -16 | -14 | -3 | -1 | -18
CCSc1nc2cc(C(=O)OC)ccc2c(=O)n1CC | -2 | -1 | i | -2 | nt | 3 | -10 | -8
CCn1cnc2c(NCCc3cccnc3)nc(C#N)nc21 | 5 | 1 | nt | 13 | 0 | nt | nt | -14
CC(C)c1nc(C#N)c(NCCCn2ccnc2)o1 | 4 | 4 | i | 17 | nt | ? | 3 | -12
O=C(Nc1ccccc1)Nc1ccccc1Br | -3 | -6 | i | 1 | -28 | -23 | 11 | nt
CCN1Cc2ccccc2-c2ccccc2S1(=O)=O | 3 | 2 | nt | nt | 13 | nt | nt | -5
CCOC(=O)C1=NN(C(=O)Nc2ccc(OC)cc2)C2C(=O)N(c3cccc(C(F)(F)F)c3)C(=O)C12 (centres undefined) | 1 | 9 | i | -8 | nt | 6 | -13 | -5
O=C(CSc1nnnn1C1CCCC1)NCc1ccc2c(c1)OCO2 | 0 | 2 | i | -20 | -13 | 12 | -2 | -28
COC(=O)CC1C(=O)NCCN1C(=S)Nc1ccc(F)cc1 (centres undefined) | 0 | 0 | i | 6 | 26 | 1 | 2 | -11
Cc1ccc(C(=O)OCC(=O)c2c[nH]c3ccccc23)cc1NC(=O)c1ccco1 | -5 | -6 | i | 7 | 11 | 2 | -4 | nt
CN1CCN(C=Nc2nc3ccccc3nc2N2CCCC2)CC1 | -4 | 4 | i | -8 | 0 | -8 | 58 | -2 | eIF4H FP inh retest=12;PABP polyA inh retest=24
Nc1ccc2oc(=O)c3ccccc3c2c1 | 1 | 0 | i | -9 | nt | 5 | -4 | -26
CCOc1ccc(-n2c(SCC(=O)Nc3cc(C)on3)nnc2-c2c[nH]c3ccccc23)cc1 | -4 | -4 | i | -14 | 6 | -8 | -4 | -35
Cc1cc([N+](=O)[O-])cc2ncccc12 | -1 | 1 | i | 10 | nt | 0 | -8 | nt
CCCC(=O)N1CCN(c2ccc(NC(=O)c3ccc([N+](=O)[O-])o3)cc2)CC1 | 1 | -21 | i | nt | i | -4 | 12 | nt
COc1ccc(-c2csc3ncnc(N4CCN(c5cccc(OC)c5)CC4)c23)cc1 | -9 | -7 | i | 18 | nt | 5 | -5 | -2
COc1ccc(-c2nc(CS(=O)CC(=O)NCc3ccc(F)cc3)c(C)o2)cc1 (centres undefined) | -3 | -1 | i | -6 | -3 | -5 | -10 | nt
O=C(O)c1ccc(CNS(=O)(=O)c2ccc3ccccc3c2)cc1 | 0 | 3 | i | -4 | 17 | -7 | -8 | nt
CC(=O)NC(Cc1c[nH]c2ccccc12)C(=O)N1CCc2ccccc2C1 (centres undefined) | 0 | 2 | i | -4 | 7 | -3 | -4 | 4
Cc1ccc(NC(=O)CO/N=C/c2ccccc2C)c(C)c1 | -5 | -2 | i | -3 | -7 | 9 | 0 | nt
Fc1ccc(Nc2ccc(-c3ccc(F)cc3)nn2)cc1 | 3 | -5 | i | -10 | -50 | -10 | -8 | nt
Next entries.
SMILES | MT1-MMP act inh | MT1-MMP act inh RFP | Rce1 inh | CSC inhib | HIV Env fusion | PABP polyA inh | eIF4H FP inh | UUG fidelity | others
CCN(CC)C(=O)COc1coc(CN2CCN(c3ccccc3F)CC2)cc1=O | 0 | 4 | i | -15 | -4 | -2 | -6 | -4
Cc1cc(C)cc(Oc2nn[nH]n2)c1 | -5 | -1 | i | -7 | -16 | 0 | 6 | -9
CCOc1ncccc1C(=O)NNC(=O)c1cccc(S(=O)(=O)Nc2ccc(OC)cc2)c1 | 2 | -9 | i | 1 | 10 | -3 | -1 | 13
CC(=O)c1nn(-c2ccc(C(F)(F)F)cc2)c(=O)[nH]c1=O | 5 | -5 | i | 3 | 8 | -6 | 6 | -8
CCOc1ccc(NC(=O)CN2CCN(CC(=O)Nc3ccc(OC)cc3OC)CC2)cc1 | -1 | -3 | i | -12 | 18 | 4 | -4 | -6
Cc1occc1-c1n[nH]c(=S)n1-c1ccccc1 | -7 | 2 | i | 5 | -5 | 13 | 0 | -25
CN(Cc1ccccc1)C(=O)c1nc[nH]c1C(=O)N1CCc2ccccc2C1 | -3 | -1 | nt | -5 | -7 | nt | nt | -12
CCN(C(=O)CSc1nc(N)cc(=O)[nH]1)c1c(N)n(Cc2ccccc2)c(=O)[nH]c1=O | -2 | 4 | i | -11 | 2 | nt | nt | -14
CCN(CC(O)COc1ccc(OCC(O)CN(CC)C2CCCCC2)cc1)C1CCCCC1 (centres undefined) | 0 | -8 | i | 8 | nt | nt | nt | -11
CC(C(=O)Nc1ccc(C#N)cc1)N1CCN(C(=O)C2CC2)CC1 (centres undefined) | -1 | 0 | nt | nt | -2 | nt | nt | -11
O=c1[nH]c(C2CCN(S(=O)(=O)c3ccccc3)CC2)nc2c1nnn2Cc1ccccc1 | -2 | 0 | i | -9 | 9 | -6 | -7 | nt
Cn1c(=O)[nH]c(=O)c2c1nc(N1CCNCC1)n2Cc1ccccc1 | -10 | -6 | i | -5 | 4 | -2 | -1 | 7
CCn1ccc(C(=O)Oc2ccc(Cl)cc2)n1 | 6 | 1 | i | -10 | nt | -1 | 7 | -31
NC(Cc1ccc(C(F)(F)F)cc1)c1csc(Nc2cnccn2)n1 (centres undefined) | 1 | -6 | nt | nt | -17 | nt | nt | -12
Cc1ccc2c(C)c(C(=O)N3CCCC(C(N)=O)C3)oc2c1C (centres undefined) | 0 | 2 | i | nt | -1 | -5 | -2 | -5
COc1ccc(C(=O)N(Cc2ccco2)Cc2cccs2)c(O)c1 | 1 | 1 | i | -14 | 12 | -9 | -5 | nt
CCN(C[C@H]1N[C@@](CC)(C(=O)OC)[C@H]2C(=O)N(Cc3ccccc3)C(=O)[C@@H]12)C(=O)COc1ccccc1 | 1 | 1 | nt | nt | ? | nt | nt | 7
CNC(CC(C)C)C(=O)NC1C(=O)NC(CC(N)=O)C(=O)NC2C(=O)NC3C(=O)NC(C(=O)NC(C(=O)O)c4cc(O)cc(O)c4-c4cc3ccc4O)C(O)c3ccc(c(Cl)c3)Oc3cc2cc(c3OC2OC(CO)C(O)C(O)C2OC2C[C@](C)(N)C(O)C(C)O2)Oc2ccc(cc2Cl)C1O (some centres undefined) | 3 | 7 | nt | -6 | -2 | nt | nt | -31
O=C(COC(=O)c1ccccc1NS(=O)(=O)c1ccc(Cl)cc1)NCc1ccccc1 | -1 | 3 | i | -19 | 11 | -3 | 0 | nt
O=C(NC(c1ccccc1)c1cc(Cl)c2cccnc2c1O)c1cccnc1 (centres undefined) | nt | nt | i | 102* | -5 | 9 | 8 | nt
O=C(Nc1ccccc1OC(F)F)c1ccc(S(=O)(=O)N2CCOCC2)cc1 | -2 | 0 | i | -10 | -15 | 4 | -4 | 1
CN1C(=O)[C@H]2[C@@H](c3ccc(C(F)(F)F)cc3)N[C@]3(CCCN(Cc4ccc(Cl)cc4)C3=O)[C@H]2C1=O | 3 | -4 | nt | nt | -12 | nt | nt | -13
CCc1ccc(Nc2cc(=O)n(C3CCCCC3)c(=O)[nH]2)cc1 | -6 | -14 | i | -8 | nt | -7 | -7 | -9
Cc1cc(C)c(C)c(S(=O)(=O)NCC(=O)Nc2sc3c(c2C(N)=O)CCCC3)c1C | -8 | -7 | i | 0 | nt | -2 | 7 | 3
CCC1(c2ccccc2)NC(=O)N(CC#N)C1=O (centres undefined) | 1 | 5 | i | -12 | -11 | 10 | 1 | nt
The results go on:
SMILES | MT1-MMP act inh | MT1-MMP act inh RFP | Rce1 inh | CSC inhib | HIV Env fusion | PABP polyA inh | eIF4H FP inh | UUG fidelity | others
Cc1cccc(C2N(c3ccc(F)cc3)C(=O)C3CCCN32)c1 (centres undefined) | -2 | 3 | i | -6 | 7 | nt | nt | -23
COc1ccc(C(=O)NCc2nnc(SCC(=O)NC3=NCCS3)n2C)cc1 | 4 | 7 | i | 3 | 12 | -1 | -2 | -14
CCCNC(=S)N1CCC(NC(=O)c2ccc(C)cc2)CC1 | 0 | 0 | i | -4 | -15 | 12 | -2 | -27
Cc1cc(=O)n2c(nc3ccccc32)[nH]1 | -2 | 4 | i | nt | -6 | -7 | 7 | nt
COc1ccccc1NC(=O)c1cc(-c2cc(OC)c(OC)c(OC)c2)nc2ccccc12 | -4 | -6 | i | 25 | 8 | -1 | -11 | -11
CC(=O)N1CCN(c2ccc(NCc3cccc4ccccc34)cc2)CC1 | 2 | -10 | nt | 14 | 3 | 20 | 6 | -16
CCN1CCN(C(c2ccccc2)c2nnnn2Cc2ccccc2)CC1 (centres undefined) | -1 | 1 | i | nt | -85 | 3 | 3 | 0
O=c1nc(NCc2ccccc2Cl)cn[nH]1 | nt | nt | i | 8 | nt | -13 | -6 | -10
C/C=C/c1ccc(OCCCCOc2c(OC)cccc2OC)c(OC)c1 | -2 | -4 | i | 1 | 0 | 8 | 1 | -3
Cc1c(Cc2ccccc2)c(=O)oc2cc(OCC(=O)NC(Cc3ccc(Cl)cc3)C(=O)O)ccc12 (centres undefined) | -1 | 1 | i | -11 | nt | 20 | 3 | -17
Brc1ccc2c(c1)C(C1=NCCN1)c1ccccc1CS2 (centres undefined) | -13 | -16 | i | nt | 62* | 6 | 4 | -34
COc1ccc(OC)c2sc(NC(=O)c3cccc(N4C(=O)CCC4=O)c3)nc12 | 1 | 3 | i | -8 | 11 | 12 | 31 | -12
CN(CC(=O)NC1CCCCCC1)S(=O)(=O)c1ccc(Br)cc1 | 7 | 6 | i | -6 | 7 | -1 | -1 | -14
C[C@H](CO)N1C[C@H](C)[C@@H](CN(C)Cc2ccccc2F)Oc2ncc(Br)cc2C1=O | 4 | 5 | nt | nt | 1 | nt | nt | 1&-1
COc1ccc(C(=O)Nc2nc(-c3cccs3)c(NC(C)=O)s2)cc1 | 1 | 3 | i | -2 | -26 | 1 | 10 | -21
CCOC(=O)c1cccc(N2C(=O)C3C(C(=O)NC4CC4)C4(C)C=CC3(O4)C2C(=O)NC(C)(C)C)c1 (centres undefined) | -2 | 2 | i | -3 | -36 | 3 | 2 | -11
C=CCN(c1ccccc1C(=O)NCC(=O)OCC)S(=O)(=O)c1ccc(C)cc1 | 0 | 2 | i | 7 | 1 | 12 | 7 | nt

Only part of the results is shown; count on the stated rates, not on these rows.
